Compound activity deposited in PubChem BioAssay by ICCB-Longwood Screening Facility, Harvard Medical School.
Ba CapD inh – inhibitors of Bacillus anthracis CapD enzyme; purified CapD enzyme, fluorescence intensity read-out; stronger effect = lower value; some hits fall short of the stated cut; z-score (test concentration not listed); 140,000 compounds, 0.23% hits; AID 492967;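 active means z-score under -4 in either of two replicates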;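 further: stock transfer was 100 nL into about 40 µL; score is relative to mean and spread of the plate; one replicate is shown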
AID504770 – growth inhibitors of E. coli YBA685 in a screen for V. cholerae RctB (chromosome II replication) inhibitors; E. coli YBA685 rctB-dependent plasmid, OD600 growth, 3 h; stronger effect = lower value; z-score (concentration not given with the values); 130,000 compounds, 0.27% hits;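 active means z-score under -2 on both plates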;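 further: wells of about 30 µL received 100 nL stock; score is relative to mean and SD of the test wells; the first replicate is given; strong numbers were not always called active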
Starred values were filed as active, the others as inactive; · = not tested or not shown.

SMILES	Ba CapD inh	AID504770
CCOC(=O)N1CCN(c2ccc(S(=O)(=O)N(Cc3ccccc3)Cc3ccccc3)cn2)CC1	·	-0.5
CCOc1ccc(N2CC(=O)SC2=S)cc1	-0.04	-1.4
Cc1ccccc1OCC1=NN2C(=N)/C(=C\c3cccn3-c3ccccc3C)C(=O)N=C2S1	0.22	-0.25
CC(C)c1ccc(NCCC(=O)c2ccc(Cl)s2)cc1	0.585	0.15
CC1=C(C(=O)Nc2ccccc2C)Sc2ccccc2N1	-0.995	-0.4
CN(C)c1nc(C#N)nc(N2CCOCC2)n1	·	-0.8
COc1nc(Cl)nc(Nc2ccccc2-c2ccccc2)n1	-1.22	·
COCc1cc(C(=O)Nc2ccc(Cl)cc2)cc2c1OCOC2	-0.095	-1
CCOc1cc(CNCc2ccco2)ccc1OCc1ccccc1	·	0.35
O=C(NNC(=O)C1CC(c2cccnc2)=NO1)Nc1ccccc1Cl (stereo not drawn)	0.825	·

Taken from above:
For AID504770, `COCc1cc(C(=O)Nc2ccc(Cl)cc2)cc2c1OCOC2` is listed with -1
For AID504770, `Cc1ccccc1OCC1=NN2C(=N)/C(=C\c3cccn3-c3ccccc3C)C(=O)N=C2S1` is listed with -0.25
For AID504770, `CCOc1ccc(N2CC(=O)SC2=S)cc1` is listed with -1.4

Later entries:
SMILES	Ba CapD inh	AID504770
Cc1cccc(Cl)c1NC(=O)N1CCCN(c2ncccc2C(F)(F)F)CC1	11.3	0.45
O=C(Nc1ccccc1F)OCC1CCCN2CCCCC12 (stereo not drawn)	0.26	-1.95
CC(C)(C)C1CCC(=NNC(=O)Cc2cn3ccsc3n2)CC1 (stereo not drawn)	·	-0.1
c1ccc2c(NC3CCCC3)nc(N3CCNCC3)nc2c1	·	-0.6
C=CC[N+]1(CC#Cc2ccccc2)CCOCC1	2.01	0.4
O=C(Nc1ccc(Cc2ccncc2)cc1)c1cc2ccccn2n1	2.94	-0.05
CCCCn1c(-c2ccc(Br)cc2)nc2ccccc21	-0.705	-0.6
NC(=O)C1CCN(C(=O)c2cn(-c3ccccc3)nc2-c2cccs2)CC1	0.6	-2.5
O=C(Cn1c(SCc2ccc(F)cc2)nc2cccnc21)N1CCCc2ccccc21	110	2.5
Cc1ccc(Cl)cc1N1CCN(CCCNc2nc3ccccc3n3c(C)nnc23)CC1	4.62	-0.95
CCc1cccc(NC(=O)c2sc(-n3cccc3)nc2C)c1	0.195	0.1
COc1ccc(NC(=S)N(Cc2ccccc2)Cc2cccn2Cc2ccc(C)cc2C)cc1OC	1.11	-0.95
CCC(=O)c1nc2ccccc2c(=O)n1-c1ccccc1C	0.355	-0.35
CCC1CCCCN1C(=O)Cn1c(=O)n(Cc2ccccc2Cl)c(=O)c2cc(OC)c(OC)cc21 (stereo not drawn)	-0.02	-1.1
CC(=O)OC1CSSCC1OC(C)=O (stereo not drawn)	-0.43	0.5
CC1Cn2c(C(=O)NCc3ccccc3)cc3c(Cl)ccc(c32)O1 (stereo not drawn)	114	-0.75
CCN1C(=O)/C(=C/c2c[nH]c3ccccc23)c2ccccc21	·	0.95
Cc1cc(Br)c(NC(=O)C(Cl)(Cl)Cl)c(Br)c1	-0.04	·
CCOC(=O)N1CCC(NC(=O)C2CCCN(c3ncnc4c3sc3cccc(F)c34)C2)CC1 (stereo not drawn)	-1.55	-0.05
Clc1ccc(-n2ncc3c(NCc4ccccc4Cl)ncnc32)cc1	-0.235	·

A different layout for part of the listing above.
Order of values – Ba CapD inh, AID504770
> COCc1cc(C(=O)Nc2ccc(Cl)cc2)cc2c1OCOC2
→ -0.095, -1
> CCOc1cc(CNCc2ccco2)ccc1OCc1ccccc1
→ ·, 0.35
> O=C(NNC(=O)C1CC(c2cccnc2)=NO1)Nc1ccccc1Cl (stereo not drawn)
→ 0.825, ·

Next structures:
SMILES	Ba CapD inh	AID504770
CC(=O)Nc1ccc(SC(F)(F)C(F)(F)C(F)(F)F)cc1	0.09	-0.7
CN(Cc1ccccc1)C(=O)CCS(=O)(=O)c1cc2c(cc1Cl)NC(=O)CO2	-0.1	-1.7
CCCC(=O)Nc1cccc(N)c1	0.465	-0.45
Cc1ccc(NC(=S)C(C#N)C(=O)N2CCCC2)c(C)c1 (stereo not drawn)	-0.525	·
Cc1ccc(/C=N/NC(=O)c2c(O)c3cccc4c3n(c2=O)CCC4)cc1	-0.055	·
COc1ccc(/C=N/NC(=O)c2cccn2C)c(OC)c1C	-0.715	·
Cc1ccc(CN(C(=O)C(C)Oc2ccc(Cl)c(C)c2)C2CCS(=O)(=O)C2)o1 (stereo not drawn)	0.71	-0.85
Cc1cccc(C(=O)NCCc2ccc(S(N)(=O)=O)cc2)c1	·	-1.35
COc1cc(NC(=O)CCNS(=O)(=O)c2ccc3c(c2)CCCC(=O)N3)cc(OC)c1OC	0.24	-0.25
CN1C(=O)c2ccccc2Sc2ccc(NC(=O)N3CCCC3)cc21	0.07	1.55
CC(CCc1ccccc1)Nc1nc2ccccc2n2cnnc12 (stereo not drawn)	3.86	-0.3
O=C(NS(=O)(=O)c1ccc2c(c1)OCCO2)c1ccccc1	-1.94	1.9
CCOc1ccc(N=C2SCC(=O)N2CC)cc1	·	-0.4
COc1ccc(-c2oc(/N=C/c3cccc([N+](=O)[O-])c3)c(C#N)c2-c2ccc(OC)cc2)cc1	0.175	·
COC(=O)c1c(C)n(Cc2ccc(C(C)(C)C)cc2)c2c1cc(O)c1ccccc12	7.6	·
CNC(=O)CN(Cc1ccccc1)S(=O)(=O)c1ccc(Cl)cc1	-0.635	-1.15
O=C(NCc1ccc(-c2csnn2)cc1)c1cccs1	-0.015	0.5
Clc1ccc(CSc2nccc(-c3cc(Cl)sc3Cl)n2)cc1	-0.195	·
O=C(N/N=C/c1cccc2c1OCO2)c1cc2ccccc2s1	-0.29	·
CCC(=O)N1CCc2cc(S(=O)(=O)CCC(=O)NC3CCCCCC3)ccc21	0.23	0.05
CCC(c1c(N)[nH]c(=S)[nH]c1=O)c1c(N)[nH]c(=S)[nH]c1=O	-0.995	-1.05
O=C(c1ccc(S(=O)(=O)NCc2ccco2)cc1)N1CCC(n2c(=O)[nH]c3ccccc32)CC1	·	0.1
Cc1cc(-c2cccs2)c2c(N)c(C(=O)c3ccccc3)sc2n1	-1.25	-0.65
CCc1sc(C(=O)Nc2cccc(Cn3cccn3)c2)cc1Br	-0.325	-0.6
COc1ccc(NC(=O)Cc2nn(C)c(=O)c3ccccc23)cc1	-0.615	0.1
COCCNc1nc(SCC(=O)NCc2ccco2)nc2ccccc12	1.1	·
FC(F)(F)c1nn(-c2ccccc2)c(-c2ccccc2)c1OCc1ccccc1	-0.125	·
O=C(CCc1c[nH]c2ccccc12)NCCc1ccc(Cl)cc1Cl	0.33	·
COCC(=O)N1CCC(c2nc3ccccc3[nH]2)CC1	·	-0.55
N#CCS(=O)(=O)c1cc(Cl)ccc1Cl	0.155	-0.4
O=C(CN1C(=O)/C(=C\c2ccccc2)SC1=S)Nc1ccc(F)c(Cl)c1	-0.03	·
Cc1cc(C)n(-c2cccc(Cl)c2C#N)n1	3.04	-0.1
Cc1ccccc1OCCCn1cc(C(=O)C2CC2)c2ccccc21	-0.44	-0.65
CCC(Sc1nnc2c3ccccc3n(C(C)C)c2n1)C(=O)Nc1nc2ccccc2s1 (stereo not drawn)	0.125	-0.65
CC(C)(C)C(=O)CC(Nc1ccccc1)c1ccc(Cl)cc1 (stereo not drawn)	0.755	0.45
N#Cc1c2c(c(N3CCCCC3)n3c1nc1ccccc13)CCCC2	0.695	-0.45
N#Cc1c2c(c(N3CCCC3)[nH]c1=S)CCCC2	-0.27	-1.25
N#Cc1cc2c(nc1SCc1ccccc1Cl)CCCC2=O	0.2	2.2
COc1ccccc1-c1ccc(SCC#N)nn1	·	1.45
O=C1CC(c2cccc(Br)c2)C2=C(CCCC2=O)N1 (stereo not drawn)	13	-0.1
COc1ccc(CCNC(=O)c2ccccc2Br)cc1OC	-0.25	·
O=C(Cc1ncc[nH]1)c1ccccc1	·	-0.9
O=c1ncc(Oc2ccc(Cl)cc2Cl)c[nH]1	1.79	-0.15
CCCCN(C)S(=O)(=O)c1ccc2oc(C(=O)O)c(C)c2c1	0.89	0.4
CC(CC(=O)NCCc1ccccc1)n1cccn1 (stereo not drawn)	-0.12	1.25
Cc1ccc(Nc2cc(C(=O)NCCCN3CCOCC3)c3ccccc3n2)c(C)c1	0.495	-0.05
COc1ccc(/C(=C/Nc2cccc(Br)c2)C(C)=O)cc1OC	-0.145	·
Cc1cccc(C(=O)Nc2sc(C)c(C)c2C#N)c1	0.17	0.55
Cc1ccc2c(c1)OC(c1ccc(N(C)C)cc1)N2 (stereo not drawn)	-3.12	-0.85
Cc1ccc(S(N)(=O)=O)cc1-c1nnc2c3ccccc3c(C)nn12	0.1	0.35
Other structures follow.
SMILES	Ba CapD inh	AID504770
COc1ccc(C(=O)N2CCN(S(=O)(=O)c3ccccc3)CC2)cc1OC	0.1	0.4
CCOc1ccccc1OCC(=O)Nc1ccc(S(=O)(=O)Nc2nc(C)cc(C)n2)cc1	-0.405	-0.05
CC(C)NC(=O)N1CCc2sccc2C1C (stereo not drawn)	0.695	·
COc1cc(/C=C2\SC(=O)N(Cc3ccc(F)cc3)C2=O)c(Br)cc1OCC(=O)O	0.77	·
Cc1cc(NC(=O)c2ccc3nonc3c2)on1	-0.425	-2
O=C(Nc1ccccc1N1CCOCC1)c1cc(=O)[nH]c2ccccc12	·	-0.4
Cc1ccc(S(=O)(=O)CC#N)cc1	-0.005	-0.3
Cc1cccc(C(=O)NNC(=O)c2cc3c4ccccc4n(C)c3s2)c1	5.96	·
O=c1c2c3c(sc2[nH]c(=S)n1Cc1ccco1)CCCC3	·	-0.1
Cc1cc(N)nn1C(=O)CSc1nc2cc(C(=O)N3CCC(C(N)=O)CC3)ccc2c(=O)n1Cc1ccco1	-0.61	·
COC(=O)c1cc(OC)nc(OC)n1	-0.305	·
Cn1ccnc1SCC(=O)NCc1ccccc1	-0.315	-0.3
COc1ccccc1C(=O)NN1C(=O)/C(=C2/C(=O)N(CC(=O)O)c3ccccc32)SC1=S	-1.04	·
CCOC(=O)c1ccc(COC(C)=O)o1	0.275	·
CCOC(=O)C1=c2s/c(=C/c3cccc(OC)c3)c(=O)n2C(N)=C(C#N)C1c1cccc(OC)c1 (stereo not drawn)	-0.64	·
CCCCOCC1CC2(CC(C)(c3csc(Nc4ccc(C)cc4)n3)OC2=O)C(=O)O1 (stereo not drawn)	49.3	·
O=C(Nc1ccc(F)cc1)c1cnccc1C(F)(F)F	0.285	-0.35
CC(C)CCN1CC(C)C(O)(c2ccccc2)CC1C (stereo not drawn)	0.18	-0.3
CCOc1cccc2cc(C(=O)Nc3ccc(OC)cc3OC)c(=Nc3ccc(C(=O)O)cc3)oc12	-0.625	·
COc1ccc(CCNC(=O)c2cc(-c3ccccn3)nc3ccccc23)cc1	0	0.2
Cc1ccc2[nH]c(-c3ccccc3)c(CN(C)C)c(=O)c2c1	·	-0.75
CCNC(=S)N1CCC(NC(=O)c2ccccc2)CC1	·	2.25
CCN(C(=O)CSc1nc2cc(C(=O)OC)ccc2c(=O)n1CCN1CCOCC1)c1cccc(C)c1	0.515	0.55
COc1ccc(/C=C\C(=O)NCc2ccc3[nH]c(C)cc3c2)cc1OC	7.17	-0.55
CCOC(=O)N1CCc2c(sc(N)c2C(=O)c2ccc(Cl)cc2)C1	-0.505	0.4
Cc1cc(-n2c(N)c(C(=O)NCc3ccc4c(c3)OCO4)sc2=S)ccc1Cl	0.295	·
Clc1ccc(CCNc2ncnc3sccc23)cc1	-0.065	-0.7
O=C(Nc1ccccc1)C1CCCN1C1CCCCC1 (stereo not drawn)	·	-0.45
COC(=O)c1cc2c(ccc3ccccc32)oc1=O	·	-0.65
C(#Cc1ccccc1)CN1CCOCC1	·	-0.8
CCN(CC)S(=O)(=O)c1ccc2c(c1)C(=NO)c1cc(S(=O)(=O)N(CC)CC)ccc1-2	7.42	·
Cc1nc(N)[nH]c(=O)c1Oc1cccc(C(F)(F)F)c1	-0.515	1.15
COC(=O)C1(c2ccc(OC)c(OC)c2)CCCC1	-0.62	2.25
CCOc1ccccc1/C=N/NC(=O)c1ccc(OC)cc1	-0.35	·
O=C(Nc1ccccc1C(=O)N/N=C/c1cccc(OCc2ccccc2)c1)c1cccs1	0.85	·
O=C(c1ccc(C(F)(F)F)nc1)N(C1CC1)C1CCN(Cc2ccccc2)CC1	-0.215	·
c1ccc(CN2CCN(Cc3ccccc3)C2c2ccc[nH]2)cc1	-0.39	-0.6
CC(=O)Nc1ccc(-c2cn3c(n2)SCC3)cc1	1.04	1.75
COc1ccc(C2C(C(=O)NCCCN3CCOCC3)c3ccccc3C(=O)N2c2ccc(OC)cc2)cc1 (stereo not drawn)	-0.7	-0.6
Cc1ccc(S(=O)(=O)N/N=C/c2c(O)[nH]c(=O)[nH]c2=O)cc1	·	1.25
COc1ccc(S(=O)(=O)N2CCC(NC(=O)c3ccccc3)CC2)cc1	·	1.4
CCOC(=O)C1CCCN(S(=O)(=O)c2ccc(Cl)cc2)C1 (stereo not drawn)	·	-0.1
Cc1oc(-n2c(C)ccc2C)c(C#N)c1C	-0.38	-0.55
COc1ccc(CCN=C(C)c2ccc3ccccc3c2)cc1OC	1.52	·
COc1cc(C)ccc1OCCn1cccc1/C=C1\C(=N)N2N=C(N3CCCC3)SC2=NC1=O	-0.59	0.5

Part of the list above, as comma-separated lines.
smiles,Ba CapD inh,AID504770
COc1ccc(S(=O)(=O)N2CCC(NC(=O)c3ccccc3)CC2)cc1,·,1.4
Cc1oc(-n2c(C)ccc2C)c(C#N)c1C,-0.38,-0.55
CCOC(=O)C1CCCN(S(=O)(=O)c2ccc(Cl)cc2)C1 (stereo not drawn),·,-0.1
COc1ccc(CCN=C(C)c2ccc3ccccc3c2)cc1OC,1.52,·
